# Screens as filed in PubChem BioAssay.
# IMPase Li inh = membrane-permeable IMPase blocker, potentiated with lithium; Potency, µM (doses to about 59.4 µM), for the others: at the top dose activity, negative = IMPase inhibition, most hits filed as inhibitors; actives 0.35% (n = 210,000); AID 1457; CHO-M1 cells, IP1 TR-FRET (IP-One), carbachol + lithium;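 note: IP1 builds up when IMPase is blocked and the TR-FRET signal falls; potency is the fitted concentration of half-maximal effect; plate controls were basal vehicle for no effect and high inhibitor control for full effect; nearly all actives have a fitted effect of over 50% in size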
#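 CHO cells stably expressing M1 receptor (2000/well, cultured 16–30 h) treated 30 min at 37C with compound plus low lithium. Cytosolic IP1 by TR-FRET (665/620 ratio and 620 channel) after 10 min lysis; AC50 by Hill fit.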
# CBFb-RUNX1 inh = blocks binding between human CBF-beta and RUNX1; Q01196+Q13951; AID 1477; AlphaScreen CBFb-His/RUNX1-biotin binding, biochemical; Potency, µM (titrated, usually from 59.8 µM), for inactives: at the top dose activity, negative = inhibition, most hits filed as inhibitors; 230,000 tested, under 10 active; note: % of control where 0% means no effect
# Target sequence (Q01196 whole entry, looked up): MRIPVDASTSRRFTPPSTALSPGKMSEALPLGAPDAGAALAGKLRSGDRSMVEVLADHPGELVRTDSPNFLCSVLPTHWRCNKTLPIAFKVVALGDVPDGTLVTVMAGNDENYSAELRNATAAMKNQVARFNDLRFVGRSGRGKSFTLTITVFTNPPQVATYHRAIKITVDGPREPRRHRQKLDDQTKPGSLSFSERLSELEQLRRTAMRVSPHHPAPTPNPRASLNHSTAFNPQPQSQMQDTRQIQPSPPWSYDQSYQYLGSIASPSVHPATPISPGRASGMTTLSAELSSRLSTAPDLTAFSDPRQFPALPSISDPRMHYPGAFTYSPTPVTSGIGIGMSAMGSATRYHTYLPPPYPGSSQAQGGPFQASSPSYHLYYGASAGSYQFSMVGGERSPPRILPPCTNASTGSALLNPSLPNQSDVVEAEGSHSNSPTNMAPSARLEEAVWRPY
# Target sequence (Q13951 whole entry, looked up): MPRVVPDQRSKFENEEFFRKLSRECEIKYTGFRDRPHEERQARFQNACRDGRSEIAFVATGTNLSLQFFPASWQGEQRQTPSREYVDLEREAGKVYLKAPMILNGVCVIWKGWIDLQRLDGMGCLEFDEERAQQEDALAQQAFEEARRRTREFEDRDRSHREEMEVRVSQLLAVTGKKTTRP
#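 AlphaScreen binding: CBFb-His and RUNX1-biotin (30 nM each) preincubated 20 min, compound added for 15 min, then nickel and streptavidin beads for 90 min, all at room temperature. Disruption of the interaction by any mechanism counts as activity.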
# Luc counter = counter-screen: inhibitors of Kinase-Glo firefly luciferase | Q27757 | Kinase-Glo luciferase, ATP luminescence, 8 min | Potency, µM (top dose mostly 38.3 µM), inactives show top-dose activity change, negative = inhibition, hits mostly inhibitors | actives 0.28% (n = 200,000) | AID 1379; note: potency is the fitted concentration of half-maximal effect; % is set by controls: 0 for no effect and ±100 for the full control effect; nearly all actives have a fitted effect of over 60% in size
#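 Luminescence was the read-out, taken after 8-minute incubation at ambient temperature. Luciferase turned over luciferin with 10 uM ATP in imidazole pH 7.2 buffer containing KCl, MgCl2, Tween 20 and BSA.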
# Epigenetic reg = regulators of epigenetic silencing causing reporter derepression in mouse cells; actives 0.2% (n = 280,000); Potency, µM (top dose mostly 53.9 µM), inactives show at the top dose GFP activation, usual class: activators; murine LDR cells, GFP reporter derepression, 30 h; note: potency is the fitted concentration of half-maximal effect; % of control where 0% means no effect; nearly all actives have a fitted effect of over 60% in size
#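 In this reporter-derepression format, murine cells bearing a silenced integrated CMV-GFP locus incubate with test compound (30 h, 37 C), then are washed and imaged; fluorescent objects of 20–120 um count as induced cells.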
# HTT aggregate = inhibitors of mutant huntingtin aggregate formation in PC12 cells; PC12 HttQ103-GFP aggregates, Acumen cytometry, 40 h; Potency, µM (highest dose often 46.1 µM), for the others: at the top dose activity change, negative = inhibition, usual class: inhibitors; actives 1.1% (n = 220,000); AID 1688; note: potency is the fitted concentration of half-maximal effect; % is set by controls: 0 for no effect and ±100 for the full control effect; nearly all actives have a fitted effect of over 60% in size
#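 Read-out: GFP aggregate count by laser scanning cytometer (488 nm excitation, 500-530 nm emission, 1–25 µm objects >6 SD above background). Cells: PC12, inducible HTTex1-Q103-GFP, 100 nM tebufenozide; compounds titrated.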
# NPSR antagonist = antagonists of human neuropeptide S receptor cAMP signaling; actives 1% (n = 220,000); CHO-NPSR cells, cAMP TR-FRET, antagonist mode; Q6W5P4; Potency, µM (highest dose often 38.3 µM), inactives show at the top dose activity change, negative = inhibition, hits mostly inhibitors; note: potency is the fitted concentration of half-maximal effect; % is set by controls: 0 for no effect and ±100 for the full control effect; nearly all actives have a fitted effect of over 50% in size; many of its hits are not listed in these tables
# Target sequence (Q6W5P4 whole entry, looked up): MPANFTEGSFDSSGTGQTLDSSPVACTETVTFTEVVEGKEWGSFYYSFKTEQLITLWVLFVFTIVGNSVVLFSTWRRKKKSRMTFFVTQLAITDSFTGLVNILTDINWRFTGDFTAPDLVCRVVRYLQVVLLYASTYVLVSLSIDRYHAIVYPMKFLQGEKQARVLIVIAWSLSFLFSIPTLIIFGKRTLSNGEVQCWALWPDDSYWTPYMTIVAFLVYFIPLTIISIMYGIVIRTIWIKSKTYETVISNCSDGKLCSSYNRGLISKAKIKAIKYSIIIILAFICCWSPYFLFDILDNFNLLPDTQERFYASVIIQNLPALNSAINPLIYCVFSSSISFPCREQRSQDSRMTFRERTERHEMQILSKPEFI
# An asterisk follows results filed as active; ? = inconclusive; · = no result given; & = joins results of further samples; [ ] = dose if it differs, or a comment. Calls come from the whole dose curve; as a rule, active = well fitted curve in the direction sought with a large enough effect; inconclusive = small, poorly fitted or top-dose-only effect, or another doubt; inactive = no such curve, though single readings can be large; an effect the other way counts as inactive or inconclusive. These rows are one share of the data; count on the stated rates, not on these rows.
SMILES,IMPase Li inh,CBFb-RUNX1 inh,Luc counter,Epigenetic reg,HTT aggregate,NPSR antagonist
O=C(Cn1nc(-c2ccccc2)nc1-c1ccccc1)OC1CCCCC1,22%,-9%,0%,-1.0%,-13%,-44%
O=c1c2c(nc3nc(NCc4ccc(Cl)cc4)[nH]n13)CCC2,-7%,3%,-5%,-1.1%,21%,3%
CCN1CCN(c2cc(-c3ccccc3)nc3cc(-c4cccc(F)c4)nn23)CC1,11%,16%,2%,4.2%,?,-57%
Cc1nc(NC(=O)c2ccccc2)sc1-c1csc(NCc2ccco2)n1,18%[38.3 µM],-16%,-8%,0.0%,-23%,?
CC(C)NC(=O)CNc1ccc(C(F)(F)F)cc1[N+](=O)[O-],-3%,-9%,-1%,-1.3%,7%,-2%
O=C(O)c1ccc(CSc2n[nH]c(-c3ccco3)n2)cc1,1%[38.3 µM],-11%,-1%,0.1%,21%,2%[46.1 µM]
CCn1c2ccccc2c2cc(NC(=O)COC(=O)c3ccccc3O)ccc21,-13%,0%,3%,-0.1%,-7%,-20%
Fc1ccc(CSc2ccc3nnc(-c4ccccn4)n3n2)cc1,-4%,?,2%,1.1%,2%,0%
CCCCCCn1c(-c2ccco2)nc2oc3cc(OC)ccc3c(=O)c2c1=O,-101%[38.3 µM],-4%,-6%,0.0%,-2%,?
O=c1cc(O)nc(SCc2ccccc2Cl)[nH]1,3%[38.3 µM],-5%,1%,-4.5%,13%,0%[46.1 µM]
Cc1oc(C(=O)O)cc1CSCc1cc(C(=O)O)c(C)o1,17%[38.3 µM],6%,0%,-0.1%,17%,4%[46.1 µM]
Cc1[nH]c2ccccc2c1SCC(=O)N1CCCc2ccccc21,29%[38.3 µM],6%,5%,-0.8%,9%,-17%[46.1 µM]
CC(=O)N(CN1C(=O)C2C3C=CC(C3)C2C1=O)c1cccc(Cl)c1 (stereo not drawn),-2%,0%,-1%,6.5%,-5%,7%
Cc1cc(NC(=O)c2cc([N+](=O)[O-])ccc2Cl)no1,·,2%,·,0.9%,-1%[9.22 µM],8%
O=S(=O)(Cc1c(F)cccc1Cl)c1ncn[nH]1,6%,-5%,-2%,4.5%,8%,15%
C=CCSc1nnc2c(n1)[nH]c1c(C)cccc12,1%[38.3 µM],8%,10%,-3.1%,-32%,-6%[46.1 µM]
O=C(CSc1ncn[nH]1)Nc1c(Br)cc([N+](=O)[O-])cc1Br,5%,6%,0%,1.1%,-8%,-2%[46.1 µM]
COCc1cc(C)nc(N/N=C/c2ccc(-c3ccc(C(=O)O)c(Cl)c3)o2)c1C#N,-8%,-12%,-2%,-3.2%,-3%,-15%
O=C(O)c1cc(-c2ccco2)nn1-c1ccc(Cl)cc1,0%,?,-1%,-1.5%,14%,8%
COc1cc2c(cc1OC)C(C(=O)N1CCN(c3ccccn3)CC1)C(c1cccs1)N(C)C2=O (stereo not drawn),1%[38.3 µM],-3%,-2%,-1.1%,1%,-17%[46.1 µM]
O=C(COC(=O)c1ccccc1Oc1ccccc1)NCc1ccco1,12%[38.3 µM],-19%,-1%,2.0%,-7%,16%[7.67 µM]
O=C(CSc1nc(-c2ccc(F)cc2)cc(C(F)(F)F)n1)Nc1ccc2c(c1)OCO2,-12%,-9%,2%,6.3%,5%,5%
Cc1cc(OCc2nc(-c3ccc(NC(=O)c4cccnc4)cc3)no2)ccc1Cl,-11%[38.3 µM],-2%,-3%,4.2%,4%,11%[46.1 µM]
Cn1c(SCC(=O)NC(=O)NCc2ccco2)nnc1-c1ccccc1,-10%[38.3 µM],-14%,-2%,-0.9%,4%,-9%[46.1 µM]

# Reprinted from the part before: 3 entries; new compounds follow.
SMILES,IMPase Li inh,CBFb-RUNX1 inh,Luc counter,Epigenetic reg,HTT aggregate,NPSR antagonist
O=C(CSc1nc(-c2ccc(F)cc2)cc(C(F)(F)F)n1)Nc1ccc2c(c1)OCO2,-12%,-9%,2%,6.3%,5%,5%
Cc1cc(OCc2nc(-c3ccc(NC(=O)c4cccnc4)cc3)no2)ccc1Cl,-11%[38.3 µM],-2%,-3%,4.2%,4%,11%[46.1 µM]
Cn1c(SCC(=O)NC(=O)NCc2ccco2)nnc1-c1ccccc1,-10%[38.3 µM],-14%,-2%,-0.9%,4%,-9%[46.1 µM]
CCCS(=O)(=O)Nc1ccc2cn[nH]c2c1,-1%,-4%,-1%,-0.2%,-10%,11%
N#Cc1ccc(/C=N/NC(=O)c2ccccc2F)cc1,11%,1%,-2%,0.0%,?,-10%[46.1 µM]
O=[N+]([O-])c1cc(-c2n[nH]c(-c3ccccc3)n2)cc([N+](=O)[O-])c1,1%[38.3 µM],3%,0%,-1.5%,-32%,-5%[46.1 µM]
N#Cc1cnc(SCC(=O)c2ccccc2)nc1N,23%[38.3 µM],0%,-4%,0.0%,-7%,-3%[46.1 µM]
CCSc1nc2c(cnn2-c2ccc(C)cc2)c(=O)[nH]1,6%,6%,4%,-1.0%,-7%,11%
O=C(Nc1ccc2nccnc2c1)c1ccco1,1%,0%,-5%,-0.2%,1%[9.22 µM],10%
O=c1c2cc(N3CCOCC3)ccc2[nH]c(=S)n1CCCN1CCCC1,15%[38.3 µM],10%,-3%,-13%,0%,-19%[46.1 µM]
CCOC(=O)c1ccc(-c2ccc(/C=C(\C#N)C(=O)NCc3cccs3)o2)cc1,-10%,-16%,2%,1.5%,-5%,-5%
CC(=O)N(CCC(c1ccccc1)c1ccco1)Cc1cccs1 (stereo not drawn),35%[38.3 µM],-2%,-2%,-0.5%,?,-29%[46.1 µM]
O=C(Nc1nc(-c2ccccn2)cs1)C1CC(=O)N(c2ccc3c(c2)OCCO3)C1 (stereo not drawn),-4%,·,-5%,-0.3%,?,-1%
CC(=O)NS(=O)(=O)c1cccnc1Nc1cccc(Cl)c1C,4%,4%,1%,-9.5%,12%,5%
COc1cc(OC)cc(C(=O)N[C@H](C(=O)OCC(=O)c2ccc3c(c2)NC(=O)CO3)C(C)C)c1,15%[38.3 µM],-7%,-6%,-2.6%,14%,-8%[46.1 µM]
O=C1CCC/C1=C/Nc1ccc2c(c1)OCO2,-5%,-15%,-1%,-0.9%,14%,-26%[46.1 µM]
COC(=O)/C=C1\S/C(=N\N=C\CC(=O)OC)NC1=O,·,2%,·,-2.0%,25%[9.22 µM],12%
O=C(Nc1ccc2oc(=O)ccc2c1)c1ccc(-c2ccccc2[N+](=O)[O-])o1,·,8%,·,1.8%,1%[9.22 µM],4%
O=c1cc(CN2CCN(c3ccccc3)CC2)nc2scc(-c3ccccc3)n12,6%,-11%,-8%,-5.8%,-3%,9%
CCCCOC(=O)c1cc(Cl)c(O)c(OC)c1,·,11%,·,-0.7%,4%[9.22 µM],6%
C=CCc1c(C)nc2ccc(C(=O)OCC)cc2c1Cl,4%,10%,-4%,0.0%,-12%[9.22 µM],54%
O=C(NCc1ccco1)c1ccc([N+](=O)[O-])o1,1%,?,-3%,-0.8%,?,9%
COC(=O)/C=C1/SC(=NC(=O)c2ccccc2)NC1=O,·,-9%,·,-0.9%,?,-3%[46.1 µM]
S=c1[nH]nc(-c2cccnc2)n1/N=C/c1cccs1,5%[38.3 µM],0%,0%,-1.1%,2%,-19%[46.1 µM]
CCOc1cc(C)c(S(=O)(=O)Nc2ccc3cn[nH]c3c2)cc1C,12%[38.3 µM],0%,-1%,7.1%,?,-5%[46.1 µM]
COc1cccc(OCC(=O)Nc2ccccc2C(N)=O)c1,14%[38.3 µM],8%,-6%,-1.1%,3%,-8%[46.1 µM]
COC(=O)/C(NC(C)=O)=C(\C)c1ccc(Cl)cc1,2%,0%,-4%,5.8%,0%,-1%[46.1 µM]

# Four compounds out of the list above, arranged by their value in Epigenetic reg, lowest first:
molecule	Epigenetic reg
O=C1CCC/C1=C/Nc1ccc2c(c1)OCO2	-0.9%
CCCCOC(=O)c1cc(Cl)c(O)c(OC)c1	-0.7%
C=CCc1c(C)nc2ccc(C(=O)OCC)cc2c1Cl	0.0%
COC(=O)/C(NC(C)=O)=C(\C)c1ccc(Cl)cc1	5.8%

# Additional compounds:
SMILES,IMPase Li inh,CBFb-RUNX1 inh,Luc counter,Epigenetic reg,HTT aggregate,NPSR antagonist
CN1CCN(C(=O)/C=C/c2ccc(Cl)cc2)CC1,-1%,3%,·,0.9%,15%,10%
N=c1c(-c2nc3ccccc3[nH]2)cc(C(=O)c2cccs2)nn1-c1ccccc1,8%,-11%,17%,1.4%,-19%,-20%[46.1 µM]
S=c1[nH]nc(-c2ccncc2)n1/N=C/C=C/c1ccccc1,·,-4%,·,5.9%,-14%[9.22 µM],54%
C/C(=N\Nc1ccc(Cl)cc1)c1c(O)cc(C)oc1=O,-2%,3%,-1%,-0.3%,-1%,-14%
O=S(=O)(Cc1cccc(C(F)(F)F)c1)c1ncn[nH]1,-2%,-5%,3%,3.3%,9%,2%
Cn1c(N)c(C(=O)COC(=O)c2cc(C(F)(F)F)nc3ccccc23)c(=O)n(C)c1=O,11%&8%,7%&12%,-1%&0%,0.7%&0.2%,-22%,-6%
COc1cc2c(cc1OC)C(C(=O)O)C(c1cc(Br)c(O)c(OC)c1)N(C)C2=O (stereo not drawn),·,-4%,·,1.3%,-29%,-12%[46.1 µM]
CCOC(=O)c1ccc(NC(=O)C2(c3ccc(OC)cc3)CCCC2)cc1,5%,26%,8%,-6.0%,12%,?
OCC(O)C(O)[C@H](O[C@H]1OC(CO)C(O)C(O)C1O)[C@H](O)CO (stereo partly drawn),6%,·,1%,-2.1%,·,·
COc1ccc(NC(=O)c2ccc(S(=O)(=O)N3CCOCC3)cc2)c(OC)c1,2%,8%,3%,-2.2%,-10%,14%[46.1 µM]
CC(=O)c1c(C)oc(C)c1CSCc1ccc(C(=O)O)o1,8%,?,2%,-2.2%,3%,-2%[46.1 µM]
CC(/C=N/n1c(COc2ccccc2)n[nH]c1=S)=C\c1ccco1,·,-23%,·,0.0%,-2%[9.22 µM],28%

# Whole records, looked up by structure:
# Shown for S=c1[nH]nc(-c2ccncc2)n1/N=C/C=C/c1ccccc1 : IMPase Li inh = ·; CBFb-RUNX1 inh = -4%; Luc counter = ·; Epigenetic reg = 5.9%; HTT aggregate = -14%[9.22 µM]; NPSR antagonist = 54%
# Shown for C/C(=N\Nc1ccc(Cl)cc1)c1c(O)cc(C)oc1=O : IMPase Li inh = -2%; CBFb-RUNX1 inh = 3%; Luc counter = -1%; Epigenetic reg = -0.3%; HTT aggregate = -1%; NPSR antagonist = -14%
